Bioassay records from PubChem BioAssay.
KCNQ2 block: KCNQ2 channel blockers in CHO-K1 cells – cell-based, FluxOR thallium flux, B-score, primary screen (AID 2156); O88943; 20 min; active compounds read low; only compounds with negative scores are shown here; some inactives read as strong as hits; B-score at 10 µM; 310,000 compounds, 1.1% hits;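 active = fluorescence ratio B-score at most minus 3 library SDs, with starting brightness B-score within 2 library SDs, cut at about -5.5 in these data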
Target sequence (O88943 whole entry, looked up): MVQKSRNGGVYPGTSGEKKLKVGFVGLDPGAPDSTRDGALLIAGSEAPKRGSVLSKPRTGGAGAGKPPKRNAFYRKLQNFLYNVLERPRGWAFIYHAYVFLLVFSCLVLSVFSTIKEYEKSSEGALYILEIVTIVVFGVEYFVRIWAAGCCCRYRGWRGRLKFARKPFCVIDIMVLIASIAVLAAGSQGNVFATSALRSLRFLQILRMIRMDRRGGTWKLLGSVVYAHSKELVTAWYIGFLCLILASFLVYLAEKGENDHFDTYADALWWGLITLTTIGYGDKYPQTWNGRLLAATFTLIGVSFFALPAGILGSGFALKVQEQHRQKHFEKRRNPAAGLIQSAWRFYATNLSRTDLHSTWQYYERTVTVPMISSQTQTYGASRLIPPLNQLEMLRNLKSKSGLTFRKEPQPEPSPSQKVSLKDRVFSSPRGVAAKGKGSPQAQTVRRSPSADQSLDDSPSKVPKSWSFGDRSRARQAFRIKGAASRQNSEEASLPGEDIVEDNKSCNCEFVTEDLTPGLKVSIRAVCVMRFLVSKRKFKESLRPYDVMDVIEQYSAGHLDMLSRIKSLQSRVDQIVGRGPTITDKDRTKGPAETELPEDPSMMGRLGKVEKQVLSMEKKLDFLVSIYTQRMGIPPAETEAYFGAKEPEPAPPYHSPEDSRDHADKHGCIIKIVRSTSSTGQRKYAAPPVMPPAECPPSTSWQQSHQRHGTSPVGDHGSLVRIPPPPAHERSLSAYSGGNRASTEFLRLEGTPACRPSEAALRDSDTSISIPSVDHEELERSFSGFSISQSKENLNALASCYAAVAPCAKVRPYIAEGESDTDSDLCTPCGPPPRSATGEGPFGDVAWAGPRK
KCNQ2 block baseline: further read-out of KCNQ2 block, marked with its call; B-score; measured here: initial fluorescence intensity artifact check;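 brightness before thallium and not channel activity; 0 = typical well and far values either way flag optical interference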
* marks the source's active call; other numbers are inactive results; i = inactive.

Preview (two entries):
nr | mol | KCNQ2 block | KCNQ2 block baseline
1 | CS(=O)(=O)N(CC(=O)Nc1ccc(Cl)c(Cl)c1)C1CCCCC1 | i | -0.01
2 | Cc1cc(NC(=O)CSc2nnnn2C2CCCC2)no1 | i | -0.69

Results, from the first entry:
nr | mol | KCNQ2 block | KCNQ2 block baseline
1 | CS(=O)(=O)N(CC(=O)Nc1ccc(Cl)c(Cl)c1)C1CCCCC1 | i | -0.01
2 | Cc1cc(NC(=O)CSc2nnnn2C2CCCC2)no1 | i | -0.69
3 | CCOC(=O)N1CCC(N2CCCC(C(=O)c3cccc(OC(C)C)c3)C2)CC1 (stereo not drawn) | i | 1.3
4 | O=C(O)Cn1c(=O)c2c3c(sc2n(Cc2ccc(F)cc2)c1=O)CCCC3 | i | 0.24
5 | O=C1C2C(C(=O)N1c1ccc3c(c1)OCO3)C1C=CC2C12CC2 (stereo not drawn) | i | 1.4
6 | CCNS(=O)(=O)c1ccc(CCC(=O)Nc2ccccc2)cc1 | i | 1.2
7 | O=C(N/N=C/c1ccc([N+](=O)[O-])cc1)c1c[nH]c2ccccc12 | i | 0.66
8 | Cc1cc(C)n2nc(C(=O)N3CCCC(N4CCN(c5ccccc5C)CC4)C3)cc2n1 (stereo not drawn) | i | -0.13
9 | COC(=O)c1cc(NC(=O)CN(c2cccc(OC)c2)S(=O)(=O)c2ccccc2)ccc1Cl | i | -2.8
10 | COc1ccc(N=Cc2c(O)n(-c3ccc(OC)cc3)c(=O)c3ccccc23)cc1 | i | -0.45
11 | Oc1ccc(/C=N/Nc2ccc3ccccc3c2)c(O)c1 | i | 0.27
12 | CS(=O)(=O)N(CC(=O)N1CCc2ccccc2C1)c1ccc2c(c1)OCO2 | i | 0.95
13 | CC1=NN(C(=O)COc2ccccc2C)C(O)(c2ccc(Cl)cc2)C1 (stereo not drawn) | -8.1* | -0.42*
14 | CC(C)CCNS(=O)(=O)c1cc2c3c(c1)CCN3C(=O)CC2 | i | -0.26
15 | CNc1nc(N)c([N+](=O)[O-])c(N2CCCCCC2)n1 | i | -0.64
16 | CCOC(=O)n1c(=O)oc2cc(S(=O)(=O)N3CCOCC3)ccc21 | i | -1.5
17 | CC(CNC(=O)c1cccs1)c1ccc([N+](=O)[O-])cc1 (stereo not drawn) | i | 0.23
18 | CCOc1cc(C(=O)Oc2cc(C)[nH]c(=O)c2[N+](=O)[O-])cc(OCC)c1OCC | i | 0.65
19 | COc1cccc(CN(CC(=O)NC2CCCCC2)C(=O)c2csnn2)c1 | i | 4.5
20 | Cc1ccc(N(C)C(=O)c2cc(S(=O)(=O)N3CCCC3)cn2C)cc1 | i | 0.54

Single records (already shown). Values in the order: KCNQ2 block	KCNQ2 block baseline
`CCNS(=O)(=O)c1ccc(CCC(=O)Nc2ccccc2)cc1` in the list: i	1.2
`CCOc1cc(C(=O)Oc2cc(C)[nH]c(=O)c2[N+](=O)[O-])cc(OCC)c1OCC` in the list: i	0.65

Nos. 18–20 of the list above:
nr | mol | KCNQ2 block | KCNQ2 block baseline
18 | CCOc1cc(C(=O)Oc2cc(C)[nH]c(=O)c2[N+](=O)[O-])cc(OCC)c1OCC | i | 0.65
19 | COc1cccc(CN(CC(=O)NC2CCCCC2)C(=O)c2csnn2)c1 | i | 4.5
20 | Cc1ccc(N(C)C(=O)c2cc(S(=O)(=O)N3CCCC3)cn2C)cc1 | i | 0.54

Carrying on:
nr | mol | KCNQ2 block | KCNQ2 block baseline
21 | COc1ccc(CN(Cc2cc3cc4c(cc3[nH]c2=O)OCO4)C(=O)NC2CCCCC2)cc1 | i | 0.56
22 | COc1ccccc1CNC(=O)CCCOc1cc(=O)n(C)c2ccccc12 | i | 0.86
23 | CC(=O)Nc1ccc(S(=O)(=O)C(C#N)c2nc3ccccc3nc2NCCO)cc1 (stereo not drawn) | i | 0.73
24 | O=S(=O)(c1cccc(C(F)(F)F)c1)c1ccc(O)cn1 | i | -0.18
25 | CCN(CC)c1ccc2c(-c3ccc(S(=O)(=O)O)cc3S(=O)(=O)[O-])c3ccc(=[N+](CC)CC)cc-3oc2c1 | i | 61
26 | COc1ccc2c(C)cc(SCC#N)nc2c1 | i | 0.58
27 | CC(=O)Nc1ccc(C(=O)N(C2=NC(C)CS2)c2ccc(Cl)cc2)cc1 (stereo not drawn) | i | 0.26
28 | CCOC(=O)c1c(C)n(C)c2ccc(O)c(CN3CCC(C)CC3)c12 | i | 1.6
29 | CSc1nnc(C)c(/C=C/NOCc2cccc(F)c2)n1 | i | -1.4
30 | COc1ccc(C(=S)N2CCCCC2)cc1Br | i | -1.3
31 | CC(C)(C)c1ccc(Cn2nnc3c(=O)[nH]c(C4CCCN(C(=O)c5cccs5)C4)nc32)cc1 (stereo not drawn) | i | -1.7
32 | O=C1C(Cl)=C(NCC2CCCO2)C(=O)N1C1CCCCC1 (stereo not drawn) | i | -0.55
33 | COc1ccc(CCNC(=O)CSc2ccc3ccccc3c2)cc1OC | i | 1.4
34 | Cc1ccc(-c2noc(-c3c(C)noc3C)n2)cc1 | i | 1.6
35 | O=C(/C=C/c1cccnc1)c1ccc(O)cc1 | i | -1.6
36 | N#Cc1c(-c2ccccc2)ccn(Cc2ccc(Cl)cc2)c1=O | i | -1.3
37 | COc1cccc(-c2nc(CS(=O)(=O)CC(=O)Nc3cc(OC)ccc3OC)c(C)o2)c1 | i | -1.6
38 | Cc1ccc2c(c1)NC(C(C)(C)C)CO2 (stereo not drawn) | i | 0.46
39 | CC1Cc2ccccc2N1C(=O)C1CCN(S(=O)(=O)c2cccs2)CC1 (stereo not drawn) | i | 0.74
40 | COc1ccc(N2C3=C(CC4=C2CCCC4=O)C(=O)CCC3)cc1 | i | 0.81

Other records follow.
nr | mol | KCNQ2 block | KCNQ2 block baseline
41 | COc1ccc2c(c1)C(C)CC(C)(C)N2C(=O)Nc1ccccc1 (stereo not drawn) | i | 0.62
42 | COc1ccc(NC(=O)c2cc3cc(OC)ccc3oc2=O)cc1 | i | 1.3
43 | O=S(=O)(Cc1ccccc1)N1CCN(Cc2ccc3c(c2)OCO3)CC1 | i | -1
44 | CCNc1nc(Cl)nc(NCc2ccccc2)n1 | i | 0.03
45 | COc1ccc(C(c2nnnn2Cc2ccccc2)N2CCN(C(=O)c3ccco3)CC2)cc1OC (stereo not drawn) | i | -1.7
46 | COCCN(C(=O)c1csnn1)C(C(=O)NC1CCCCC1)c1sccc1C (stereo not drawn) | i | 0.43
47 | CCOC(=O)[C@@H]1[C@H]2COc3ccc(Br)cc3[C@@H]2N2C(=O)N(c3ccc(Cl)cc3)C(=O)[C@]12C | i | -3.6
48 | CN(c1ccccc1)S(=O)(=O)c1cccc(NC(=O)c2ccncc2)c1 | i | -1.2
49 | COc1ccc(N2C(=O)/C(=C\c3ccco3)N=C2SCC(N)=O)cc1Cl | i | -0.71
50 | O=C(COc1ccc(F)cc1)NCCCn1ccnc1 | i | 0.11
51 | COc1c(Cl)cnn(-c2cccc(C)c2)c1=O | i | -0.38
52 | CC(C)CCN1CCN(Cc2ccc(Sc3nncn3C)o2)CC1CCO (stereo not drawn) | i | -0.27
53 | Cc1ccc(-c2nc3c(c(SCC(=O)N4CCOCC4)n2)COC(C)(C)C3)cc1 | i | -2.4
54 | NS(=O)(=O)c1ccc(O)c(NC(=O)c2ccc([N+](=O)[O-])o2)c1 | i | 2.2
55 | CCOC(=O)c1cnc(-n2[nH]c(C)cc2=O)[nH]c1=O | i | -1.3
56 | Cc1cccc2nc(-c3cccc(NC(=O)Cc4ccccc4)c3)cn12 | i | -0.75
57 | CCC1CCCCN1C(=O)c1ccc(OC2CCN(C(=O)COC)CC2)cc1 (stereo not drawn) | i | 1.7
58 | Nc1cc(Oc2ccc(F)cc2F)cc([N+](=O)[O-])c1 | i | -0.41
59 | Cc1ccccc1C(=O)N1CCN(c2ccc(NC(=O)Cc3ccccc3)cc2)CC1 | i | 2.4
60 | Cc1cc(C)c(C)c(OCCCn2ccnc2)c1 | i | 2.9

Going on with the list.
nr | mol | KCNQ2 block | KCNQ2 block baseline
61 | COc1ccc(OC)c(CN2C(=O)c3ccccc3C2C(=O)NCC2CCCO2)c1 (stereo not drawn) | i | -0.44
62 | C=CCn1c(=O)c(C(=O)NC2CC2)c(O)c2cc(OC)c(OC)cc21 | i | 0.04
63 | O=C(CSc1ncc(-c2ccc(F)cc2)[nH]1)N1CCCCC1 | i | -2
64 | COc1ccc(NC(=O)C(CC(=O)O)Cc2ccc(C)cc2)cc1 (stereo not drawn) | i | 0.61
65 | COc1ccc(CC(=O)NCCS(=O)(=O)N2CCN(c3ccccc3)CC2)cc1 | i | -0.09
66 | Cc1ccc2c(COC(=O)c3n[nH]c4ccccc34)cc(=O)oc2c1 | i | -1.1
67 | COc1ccccc1N1C(=O)S/C(=C\c2cccs2)C1=O | i | -0.2
68 | CC1(C)C2CCC1(C)C(OCCNCCOC(=O)Nc1ccccc1)C2 (stereo not drawn) | i | -0.96
69 | Cc1ccc(C(=O)N2CCCC(CCC(=O)NCc3ccc(F)c(F)c3)C2)cn1 (stereo not drawn) | i | 0.61
70 | CC(C)C(=O)NC(=S)Nc1ccc(S(=O)(=O)Nc2ccccc2)cc1 | i | -0.39
71 | CC1(C)CN(c2ccc(Br)cc2Br)C1=O | i | 0.97
72 | COc1ccc(OC)c(C(=O)COC(=O)c2cc(C)oc2C)c1 | i | -1.9
73 | Cc1cc(C)n(-c2ncnc3c2oc2ccccc23)n1 | i | -0.01
74 | COc1ccc(C=O)cc1OC(=O)N1CCOCC1 | i | -0.05
75 | CC(C)CC(=O)Nc1ccc(-c2nnn(CC(=O)NCc3ccco3)n2)cc1 | i | -1.2
76 | Cc1cc(NCCCOC(C)C)n2c(nc3ccccc32)c1C#N | i | 2.9
77 | Cc1cc(C)n2nc(C(=O)Nc3ccc4c(c3)CCC4)nc2n1 | i | -1.5
78 | COc1ccc(Br)cc1CN1CCSCC1 | i | -0.53
79 | CSCCC(NC(=O)COc1ccccc1)C(=O)OCc1ccc([N+](=O)[O-])cc1 (stereo not drawn) | i | -0.02
80 | NC(=O)C1(N2CCCCC2)CCN(CC(=O)Nc2ccccc2-c2ccccc2)CC1 | i | 0.24

Later entries:
nr | mol | KCNQ2 block | KCNQ2 block baseline
81 | COc1c(O)ccc2c1CN1CCc3cc4c(cc3C1C2)OCO4 (stereo not drawn) | i | -0.16
82 | O=C(C[n+]1ccccc1)Nc1ccccc1C(F)(F)F | i | 0.19
83 | CC(=O)N(C)c1ccc(NC(=O)Nc2cccc3ccccc23)cc1 | i | -1.1
84 | Cc1ccc(CN2CCNC(=O)C2CC(=O)O)cc1 (stereo not drawn) | i | -1.7
85 | Cn1cc(/C(Cc2ccccc2)=N\O)c2ccccc21 | i | 0.72
86 | CN(CCCNC(=O)C1CCCN(S(=O)(=O)c2cnc[nH]2)C1)c1ccccc1 (stereo not drawn) | i | -0.07
87 | Cc1ccc(S(=O)(=O)N2CCN(c3ccccc3)CC2)cc1 | i | 0.54
88 | CSc1nnc(CNS(=O)(=O)c2ccc(F)cc2)n1C | i | -0.46
89 | CCOc1ccc(NCC(=O)N/N=C/C=C/c2ccccc2)cc1 | i | 0.6
90 | O=c1[nH]c(Nc2ccccc2)cc2cc(Br)ccc12 | i | 0.33
91 | O=C(Cc1ccc(F)cc1)NCc1cccnc1 | i | -0.09
92 | COc1ccc(Cl)cc1NC(=O)CN(C)C(=O)c1ccc(N2CCCCC2)c([N+](=O)[O-])c1 | i | -0.09
93 | CN(CCCN1c2ccccc2CCc2ccccc21)CC(=O)c1ccc(Cl)cc1 | i | -0.49
94 | Nc1c2c3c(sc2nc(=O)n1N)CCCC3 | i | 1.2
95 | CC(C)(C)C1CCC2(CC1)CC(=O)c1ccccc1O2 (stereo not drawn) | i | 0.64
96 | CCC1(CC)NC(=O)N(CC(=O)Nc2sc3c(c2C(N)=O)CCC3)C1=O | i | 0.3
97 | CCCCCC(=O)NC(=S)NNC(=O)CC | i | 0.56
98 | CCOC(=O)CC1C(=O)NCCN1S(=O)(=O)c1cccc(C(F)(F)F)c1 (stereo not drawn) | i | 1.1
99 | CCOC(=O)c1cc2sccc2n1CC(=O)OC(C)C | i | -0.74
100 | O=C(NC(=S)Nc1ccccc1N1CCCCC1)c1ccc(-c2cccc([N+](=O)[O-])c2)o1 | i | -1.7

(more compounds)
nr | mol | KCNQ2 block | KCNQ2 block baseline
101 | O=C(CSCC(=O)NC1CC1)Nc1ccc2ccccc2c1 | i | 0.57
102 | Cc1cc(C)nc(NC(=O)Nc2ccccc2C(F)(F)F)n1 | i | -0.04
103 | CC1CCC(NC(=O)c2cccc(S(=O)(=O)N3CCN(c4ccccc4)CC3)c2)CC1 (stereo not drawn) | i | 0.16
104 | O=C(NCCCn1ccnc1)c1ccncc1 | i | 2.3
105 | Cc1ccc(C)c(S(=O)(=O)Nc2ccc(C(=O)N3CCCCC3)cc2)c1 | i | 0.8
106 | Cc1noc(C)c1CS(=O)(=O)Cc1ccc(Cl)cc1 | i | -0.24
107 | CCOc1ccc(NC(=O)N2CCN(Cc3ccc4c(c3)OCO4)CC2)cc1 | i | 0.76
108 | CC(=O)c1ccccc1NC(=O)COC(=O)c1ccc2c(c1)nc(C)n2-c1ccccc1 | i | -0.39
109 | CC(=O)C1=C(O)C(=O)N(CO)C1c1ccccc1F (stereo not drawn) | i | 2.1
110 | CNC(=S)N(Cc1ccco1)Cc1cc2cc(OC)c(OC)cc2[nH]c1=O | i | 0.52
111 | CCOC(=O)c1c(-c2cccs2)csc1N | i | 0.3
112 | CN(C)S(=O)(=O)N1CCN(CC(=O)Nc2cc(Cl)ccc2Cl)CC1 | i | -0.29
113 | N#Cc1c(Oc2ccc3ccccc3c2)sc(C(=O)c2ccccc2)c1N | i | 0.31
114 | O/N=C/c1cc(Br)ccc1OCc1ccccc1F | i | 0.18
115 | COCCNC(=O)CCn1nc(-c2ccc(C)cc2)c2ccccc2c1=O | i | -0.18
116 | O=C(Cc1ccc(Br)cc1)Nc1nc2ccccc2[nH]1 | i | -1.5
117 | CC(OC(=O)c1cc(Br)ccc1O)C(=O)Nc1ccc(S(=O)(=O)N2CCCC2)cc1 (stereo not drawn) | i | -1
118 | CC(Oc1ccc(Br)cc1)C(=O)Nc1ccncc1 (stereo not drawn) | i | -0.26
119 | CC(C)Oc1ccccc1OCCCOc1cccc2cccnc12 | i | -1.3

This is a subset (hit frequency here may not be typical).
